KCNQ2 inh: KCNQ2 potassium channel inhibitors, primary screen, cell-based, CHO-K1, FluxOR thallium flux, B-score (AID 2156). O88943. 20 min; active compounds read low; only compounds with negative scores are shown here; some inactives read as strong as hits. B-score at 10 µM. 1.1% of 310,000 active;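 active = fluorescence ratio B-score at most minus 3 library SDs, with starting brightness B-score within 2 library SDs, cut at about -5.5 in these data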
Target sequence (O88943 whole entry, looked up): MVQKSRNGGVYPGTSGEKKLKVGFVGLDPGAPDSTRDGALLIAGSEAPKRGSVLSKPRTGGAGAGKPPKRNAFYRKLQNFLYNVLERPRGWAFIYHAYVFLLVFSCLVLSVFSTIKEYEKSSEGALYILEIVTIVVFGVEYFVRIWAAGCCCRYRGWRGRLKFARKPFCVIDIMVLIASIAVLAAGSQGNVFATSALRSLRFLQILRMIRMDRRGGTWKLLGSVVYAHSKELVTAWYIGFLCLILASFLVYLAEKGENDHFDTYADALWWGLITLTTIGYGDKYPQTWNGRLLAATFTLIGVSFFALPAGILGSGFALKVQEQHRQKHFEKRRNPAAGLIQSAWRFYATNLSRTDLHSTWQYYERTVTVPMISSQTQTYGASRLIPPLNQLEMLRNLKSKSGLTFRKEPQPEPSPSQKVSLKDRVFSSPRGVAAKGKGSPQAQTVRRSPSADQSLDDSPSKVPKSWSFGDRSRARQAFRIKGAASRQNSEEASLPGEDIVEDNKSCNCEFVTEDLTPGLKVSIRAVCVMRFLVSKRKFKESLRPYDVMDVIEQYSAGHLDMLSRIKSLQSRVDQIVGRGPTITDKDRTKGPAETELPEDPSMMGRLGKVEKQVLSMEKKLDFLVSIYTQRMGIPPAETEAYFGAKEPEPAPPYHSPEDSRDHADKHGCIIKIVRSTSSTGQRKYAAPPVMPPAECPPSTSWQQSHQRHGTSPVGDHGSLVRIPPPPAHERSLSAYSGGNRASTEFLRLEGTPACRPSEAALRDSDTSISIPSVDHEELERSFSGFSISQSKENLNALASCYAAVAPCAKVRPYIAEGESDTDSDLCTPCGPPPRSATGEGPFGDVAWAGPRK
KCNQ2 inh baseline: recorded beside KCNQ2 inh, whose call it bears; B-score; measured here: initial fluorescence intensity artifact check;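 brightness before thallium and not channel activity; 0 = typical well and far values either way flag optical interference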
The depositor's hits bear a star; i = inactive. A portion of the library; rates above refer to the full screens.

KCNQ2 inh,KCNQ2 inh baseline,Structure
i,-0.6,CC(=O)Nc1ccc(S(=O)(=O)N2CCN(Cc3ccccc3[N+](=O)[O-])CC2)cc1
i,0.87,C=CCSc1nc(N)c2c(C)c(C)sc2n1
i,0.25,COc1cc(/C=N/NC(=O)c2cc(-c3ccccc3)sc2N)cc(OC)c1OC
i,-0.04,CCc1ccc(NS(=O)(=O)c2ccc3c(c2)CCN3C(=O)CCC(=O)O)cc1
i,0.89,COc1cc([N+](=O)[O-])ccc1NC(=O)CC(C)C
i,0.99,CCOc1[nH]n(-c2ccccc2)c(=O)c1C=Nc1ccc(Cl)cc1
i,2,c1ccc(-c2csc3ncnc(NCC4COc5ccccc5O4)c23)cc1 (stereo not given)
i,-1.4,CC1=NNC(=O)/C1=C\c1cn(-c2ccccc2)nc1-c1ccc(F)cc1
i,0.39,O=C(CSc1nnnn1-c1ccc2c(c1)OCO2)NCc1cccs1
i,-0.61,COc1cccc(NC(=O)CSc2nc(=O)n(Cc3ccncc3)c3c2CCCC3)c1
i,1.5,Cc1ccc(OCCNCc2ccccc2)c(C)c1
i,-0.55,COc1ccc(Oc2cnn(-c3ccccc3)c(=O)c2Br)cc1
i,-1,CCOC(=O)C1(Cc2cccc(Cl)c2)CCCN(C(=O)CN2C(=O)CSC2=O)C1 (stereo not given)
i,1.2,O=C(COC(=O)c1ccc(Cl)nc1)NCCNC(=O)COC(=O)c1ccc(Cl)nc1
i,3,COc1ccc(NC(=O)COC(=O)c2cnccn2)cc1Cl
i,-0.17,CC(C)CC(=O)N/N=C/c1c(N)n(C)c(=O)n(C)c1=O
i,-0.02,COc1ccc(Cc2nc3ccccc3n2C)cc1
i,-0.21,CC(C)(C)c1ccc(/C=C/C(=O)NCCCN2CCOCC2)cc1
i,0.35,C(=N\Nc1nc(Nc2ccccc2)nc(Nc2ccccc2)n1)/c1cccnc1
i,-1.9,Cc1ccc(CNC(=O)C2CCCN(S(=O)(=O)N3CCC(C)CC3)C2)cc1 (stereo not given)
i,-0.24,O=C(COc1ccc(Cl)cc1)NNC(=S)NCc1ccccc1
i,-0.49,CCN(CC)CCCNC(=O)c1cc(Nc2ccc(OC)cc2)nc2ccccc12
i,0.56,Cn1ncc([N+](=O)[O-])c1C(=O)NCc1ccccc1
i,-0.79,CCCCn1c(=O)c(Cc2ccccc2)c(O)c2ccccc21
i,0.03,CC(=O)NC(O)C(=O)c1ccco1 (stereo not given)
i,2.6,Cc1ccc(-c2c(C)n([O-])c3c([n+]2=O)CCC3)cc1
i,1,O=C(CS(=O)(=O)c1ccc(F)cc1)NCc1ccccc1
i,-1.4,CC(=O)Nc1ccc(NC(=O)c2ccc([N+](=O)[O-])cc2Cl)cc1
i,1.1,CC(=O)Nc1ccc(C(=O)OCC(=O)N(C)C2CCCCC2)cc1
i,-0.37,CCCN1CCN(CCCNC(=O)C(CC)n2nc(C)n3c(cc4occc43)c2=O)CC1 (stereo not given)
i,2.6,Cn1nc(C(F)(F)F)c(-c2ccccc2)c1NC(=O)CCC(=O)O
i,3,S=c1c2c(nc3nc[nH]n13)CCC2
i,-0.12,Fc1ccc(CNC2CCN(Cc3ccccc3)CC2)cc1
i,-0.26,CSc1nsc(SC)c1NC(=O)OC1CCCCC1
i,-1.1,CC(NS(=O)(=O)c1ccc(Cl)cc1)C(=O)NCCC1=CCCCC1 (stereo not given)
i,0.67,CCCS(=O)(=O)C(=C1Nc2ccccc2N1)S(=O)(=O)CCC
i,0.22,CCCCCCC1/C(=N/O)CCC1C(=O)OC (stereo not given)
i,-1.8,CN(C)c1ccc(N=Nc2ccccc2Br)cc1
i,0.32,Cc1cc(Cl)ccc1OCC(=O)Nc1ccccc1NS(=O)(=O)c1cccs1
i,0.01,O=C(NN=C1CCCCCCCCCCC1)c1ccncc1
i,-1.9,CSc1sc(C(=O)NNC(=O)c2ccc(Cl)cc2)c2c1C=CCC2
i,-2.9,O=C1c2cccnc2C(=O)N1c1cccc([N+](=O)[O-])c1
i,-0.19,CC(C)CC1NC2(C(=O)N(C)c3ccccc32)C2C(=O)N(C(C)C)C(=O)C12 (stereo not given)
i,-0.71,C/C(=N\NC(=O)CC(C)C)c1ccc(Cl)c(Cl)c1
i,-0.08,CS(=O)(=O)Cc1cc(N2CCCC2)nc(-c2ccccc2)n1
i,-0.63,C=CCn1c(SCc2ccccc2F)nc2cc(C(=O)O)ccc2c1=O
i,-1,CCCN(CCC)S(=O)(=O)c1cc(CN2C(=O)c3cccnc3C2=O)ccc1OC
i,-0.25,O=C(NCc1ccccc1)c1ccc2c(=O)[nH]c3c(C(=O)NCC4CCCO4)sc(=S)n3c2c1 (stereo not given)
i,-0.31,COc1ccc(/C=N/Nc2snc(SC)c2C#N)cc1OC
i,-1.5,O=C(Cn1nnc2c(cnn2-c2ccccc2)c1=O)N1CCN(c2ccccc2F)CC1
i,1.1,Cc1ccccc1CSc1n[nH]c(NS(=O)(=O)c2ccccc2)n1
i,-0.08,CCCCNC(=O)CC1N=C2c3ccccc3N=C(SCC(=O)Nc3ccc(OC)cc3)N2C1=O (stereo not given)
i,0.38,Cc1ccc(C)n1-c1ccc(N2CCOCC2)c(Br)c1
i,-1.5,O=c1c2cc(N3CCOCC3)ccc2[nH]c(=S)n1Cc1cccc(Cl)c1
i,0.07,COCCn1c(SCc2c(F)cccc2Cl)nc2c1c(=O)[nH]c(=O)n2C
i,1.1,CC(C)C(=O)N1CCN(S(=O)(=O)c2ccc3ccccc3c2)CC1
i,-0.88,CCOc1ccccc1CNC(=O)C1CCCN(c2nnc(C)c3c(C)n(-c4ccccc4)nc23)C1 (stereo not given)
i,2.1,CCN(CC)CC#CCC(O)(c1ccccc1)C1CCCC1 (stereo not given)
i,2.2,Cc1nnc2ccc(-c3ccc(NC(=O)c4ccc(Cl)nc4)cc3)nn12
i,0.79,CCn1cc(CN2CCc3c([nH]c4ccccc34)C2c2cccc(O)c2)c(C)n1 (stereo not given)

Next part:
KCNQ2 inh,KCNQ2 inh baseline,Structure
i,0.15,COc1ccccc1N1CCN(C(=O)CN(CCc2ccccc2)S(C)(=O)=O)CC1
i,2.1,Cc1ccc2nc(Nc3ccccc3)cc(C)c2c1
i,1.9,CC1(C)Cc2c(cnn2-c2ccc(F)cc2)C(NC(=O)c2ccc(=O)oc2)C1 (stereo not given)
i,-0.9,Oc1ccc(Nc2nc(N3CCCC3)c3ccccc3n2)cc1
i,1.1,COc1ccccc1NC(=O)c1cc2c(CO)cnc(C)c2oc1=Nc1cc(OC)c(OC)c(OC)c1
i,0.31,O=C(NCC(c1ccc(F)cc1)N1CCOCC1)c1ccco1 (stereo not given)
i,1.4,Cc1nc2c3cc(F)ccc3n(CCN3CCCCC3)c2s1
i,-0.94,CC(c1ccccc1F)n1cc(C(=O)NCCCc2nc3ccccc3[nH]2)nn1 (stereo not given)
i,0.86,Cc1cc(C(C)(C)C)ccc1NC(=O)CC(C)(C)CC(=O)O
i,-0.54,COc1ccc(C(=O)O/N=C/c2c(C(F)(F)F)nn(C)c2SCc2ccccc2Cl)cc1
i,-0.9,CCCCC1(C)OC(=O)C(=Cc2ccc(SC)cc2)C(=O)O1 (stereo not given)
i,-0.68,O=C(Nc1ccc(F)cc1F)C1CCN(c2ncnc3c2sc2cccc(F)c23)CC1
i,-2.5,O=C1/C(=C/c2cccnc2)SC(=NCc2ccccc2)N1Cc1ccccc1
i,-0.34,C[C@@H]1OC(Nc2ccc(N=Nc3ccccc3)cc2)[C@H](O)[C@H](O)[C@H]1O (stereo not given in full)
i,-0.22,c1csc(-c2nc(N3CCCCC3)no2)c1
i,-2,Cc1cc(C)n(-c2ccc(Cl)c(C(=O)OCC(=O)N3CCCCC3C)n2)n1 (stereo not given)
i,0.94,O=C(N/N=C1/SCC(=O)N1Cc1ccco1)c1ccccc1F
i,0.87,N#CCC(=O)N/N=C\c1ccccc1OC/C=C/c1ccccc1
i,-0.81,C/C=C/COC(=O)C1=C(C)NC(=O)NC1c1ccc2c(c1)OCO2 (stereo not given)
i,0.1,Cc1ccc(NC(=O)COc2coc(CN3CCc4ccccc4C3)cc2=O)c(C)c1
i,-0.45,COc1ccc(OC)c(NC(=O)COc2ccc(Br)cc2)c1
i,2.4,COc1cccc(N(CC(=O)NC2CCCCC2)C(=O)c2snc(C(N)=O)c2N)c1
i,0.94,O=C(O)C1CCN(S(=O)(=O)c2ccc3c(c2)OCCCO3)CC1
i,-0.47,CS(=O)(=O)NCCCNc1ccc(Cl)cc1[N+](=O)[O-]
i,-0.94,CCc1nnc(NC(=O)CSc2nnc(-c3ccc(OC)cc3)n2C)s1
i,0.58,COc1ccc(NC2CC(=O)N(C(C)C)C2=O)cc1 (stereo not given)
i,1.7,COc1ccc2c(CC(=O)Nc3ccc(N4CCOCC4)cc3)coc2c1
i,0.74,CC1Oc2ccccc2N(CC(=O)N2CCCc3ccccc32)C1=O (stereo not given)
i,0.39,CC1(C)CC(=O)C2=C(C1)N(CC1CCCO1)C(=O)NC2(C(F)(F)F)C(F)(F)F (stereo not given)
i,-0.14,Cc1ccsc1CN(C(=O)c1ccc([N+](=O)[O-])cc1)C1CCS(=O)(=O)C1 (stereo not given)
i,-0.04,Cc1sc2nc(C3CC3)nc(N3CCN(C(=O)c4ccccc4F)CC3)c2c1C
i,1.6,CCCc1cc(=O)oc2cc(OCC(=O)N3CCN(C(=O)C4COc5ccccc5O4)CC3)ccc12 (stereo not given)
i,-0.63,Cc1ccccc1C(=O)N1CCN(S(=O)(=O)c2ccccc2)CC1
i,-0.55,COc1ccccc1-c1nnc(SCc2ccccn2)n1C
i,-1.3,CC(C)(C)c1ccc(Oc2ccc(NC(=O)C3CC=CCC3C(=O)O)cc2)cc1 (stereo not given)
i,0.07,Fc1ccc(C2CCCN2Cc2nc(-c3cnccn3)no2)cc1 (stereo not given)
i,0.54,COc1ccc(COC(=O)CCNC(=O)c2ccc(Cl)cc2)cc1
i,-1.2,Cc1c(C(=O)NCCc2ccc(S(N)(=O)=O)cc2)cccc1[N+](=O)[O-]
i,-0.62,CCN(C(=O)COC(=O)C1CCN(S(=O)(=O)c2ccc3c(c2)OCCO3)CC1)C1CCCCC1
i,0.02,CCn1c(O)c(/C=N/N=C/c2ccc(OC)cc2)c2cc(C3=NNC(=O)CC3)ccc21
i,0.67,CNC(=O)CSc1nnc(COc2ccc(Cl)cc2)n1CCOC
i,-0.13,NC(=O)NC(=O)COC(=O)c1cccc(NS(=O)(=O)/C=C/c2ccccc2)c1
i,1,Cc1cc(NC(=O)c2ccc3c(c2)OCCO3)ccc1NC(=O)c1cc2ccccc2o1
i,1.2,Cc1ccc[n+](-c2nc3ccccc3nc2[N-]S(=O)(=O)c2ccccc2)c1
-5.6*,0.39*,Cc1ccc(S(=O)(=O)N2Cc3ccccc3CC2C(=O)Nc2ccc3c(c2)OCO3)cc1 (stereo not given)
i,-1.1,CCOC(=O)c1c(C)nc(C)c(C(=O)OCC)c1-c1cccc(N)c1
i,-0.92,CC(=O)Nc1ccc(OS(=O)(=O)c2c(C)cc(C)cc2C)cc1
i,0.2,c1ccc(COc2cccc(CN3CCN(c4ccccn4)CC3)c2)cc1

Arranged by value in KCNQ2 inh baseline (high to low): 3 from the list above
SMILES | KCNQ2 inh | KCNQ2 inh baseline
CNC(=O)CSc1nnc(COc2ccc(Cl)cc2)n1CCOC | i | 0.67
CC(=O)Nc1ccc(OS(=O)(=O)c2c(C)cc(C)cc2C)cc1 | i | -0.92
Cc1c(C(=O)NCCc2ccc(S(N)(=O)=O)cc2)cccc1[N+](=O)[O-] | i | -1.2

Next section.
KCNQ2 inh,KCNQ2 inh baseline,Structure
i,-1.9,COCCNC(=O)NC12CC3(C)CC(C)(CC(C)(C3)C1)C2
i,1.1,Cc1cc(NC(=O)COC(=O)CCNS(=O)(=O)c2c(Cl)cccc2Cl)no1
-6.1*,-0.08*,CCCCCCCCCn1c2c(c(=N)c3c1CCC3)CCC2
i,-0.73,CC(C)Cc1ccccc1S(N)(=O)=O
i,2.7,CCOC(=O)c1c(N)nn(C(=O)C(C)C)c1-c1ccccc1
i,-0.26,CC(C)C(=O)N1CCN(c2ccc(NC(=O)c3ccc(Br)o3)cc2)CC1
i,0.37,Cc1ccc(OCCC(=O)Nc2ccc(S(=O)(=O)Nc3cc(C)nc(C)n3)cc2)cc1
i,0.83,CCCCCc1n[nH]c2c1CCCC2

Grouped by structure: those above containing an aryl thioether with sulfur outside any ring (14)
KCNQ2 inh,KCNQ2 inh baseline,Structure
i,0.87,C=CCSc1nc(N)c2c(C)c(C)sc2n1
i,0.39,O=C(CSc1nnnn1-c1ccc2c(c1)OCO2)NCc1cccs1
i,-0.61,COc1cccc(NC(=O)CSc2nc(=O)n(Cc3ccncc3)c3c2CCCC3)c1
i,-0.26,CSc1nsc(SC)c1NC(=O)OC1CCCCC1
i,-1.9,CSc1sc(C(=O)NNC(=O)c2ccc(Cl)cc2)c2c1C=CCC2
i,-0.63,C=CCn1c(SCc2ccccc2F)nc2cc(C(=O)O)ccc2c1=O
i,-0.31,COc1ccc(/C=N/Nc2snc(SC)c2C#N)cc1OC
i,1.1,Cc1ccccc1CSc1n[nH]c(NS(=O)(=O)c2ccccc2)n1
i,0.07,COCCn1c(SCc2c(F)cccc2Cl)nc2c1c(=O)[nH]c(=O)n2C
i,-0.54,COc1ccc(C(=O)O/N=C/c2c(C(F)(F)F)nn(C)c2SCc2ccccc2Cl)cc1
i,-0.9,CCCCC1(C)OC(=O)C(=Cc2ccc(SC)cc2)C(=O)O1 (stereo not given)
i,-0.94,CCc1nnc(NC(=O)CSc2nnc(-c3ccc(OC)cc3)n2C)s1
i,-0.55,COc1ccccc1-c1nnc(SCc2ccccn2)n1C
i,0.67,CNC(=O)CSc1nnc(COc2ccc(Cl)cc2)n1CCOC

Compound activity deposited in PubChem BioAssay by Johns Hopkins Ion Channel Center.
